Assay outcomes (PubChem)
NPYLR7 agonist = activates Aedes aegypti NPYLR7 receptor; HEK293T NPYLR7/Galpha15, GCaMP6s calcium fluorescence; activation, % at 10 µM; actives 0.15% (n = 270,000); in the data active means activation above about 40%;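 further: 0% = vehicle and 100% = reference agonist at the receptor; some compounds past the cut are filed as inactive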
NPYLR7 agonist max-min = recorded beside NPYLR7 agonist, whose call it bears; activation, %; measured here: Max-Min RFU normalised activation; some inactives read as strong as hits;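 span of the calcium signal over five minutes; 0% = vehicle and 100% = native peptide agonist; compound fluorescence can raise it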
* marks the source's active call; other numbers are inactive results; & = joins results of further samples. Not all compounds are listed; rates above refer to the full screens.

Every second line gives: NPYLR7 agonist	NPYLR7 agonist max-min
CCN(CC)c1ccc(C(=O)NC(c2n[nH]c(C)n2)C(C)C)cn1 (stereo not given)
    4	0
CC(C)C(=O)NCCc1nc2ccccc2n1Cc1ccccc1
    3	-5
CC(C)c1cc(=O)n(CC(=O)Nc2cccnc2)cn1
    16	6
CN(Cc1csc(-c2ccccc2)n1)CC1CCOC1 (stereo not given)
    0	1
CC(C)C1c2[nH]c3ccccc3c2CCN1Cc1nc(-c2ccccn2)no1 (stereo not given)
    11	-2
CN(CCCc1cnn(C)c1)c1nc(-c2cccnc2)nc2c1CNC2
    10	4
COCC(=O)N(Cc1cc(NC(=O)c2cccc(F)c2)ccc1N(C)C)C(C)C(C)C (stereo not given)
    29	19
CCC(=O)Nc1cccc(-n2nc(OC)nc2-c2ccc(F)cc2)c1
    23	19
CCCC(=O)Nc1ncc(Cc2ccc(Cl)c(Cl)c2)s1
    -8	-7
CCOC1CCCN(C(=O)c2ccc(Cl)cc2)C1 (stereo not given)
    -2	-1
CCc1nc2c(N3CC[C@H](CO)[C@H](O)C3)ncnc2o1
    2	0
O=C(c1ccccc1)c1cc[n+](Cc2cccc3ccccc23)cc1
    -6	-12
CC(O)C#CC1(C)CCCC(C)(C)O1 (stereo not given)
    -4&4	-7&3
Cn1c(C(=O)NCc2ccco2)cc2c(=O)n3ccccc3nc21
    2	-1
COC(=O)C(C)OC(=O)c1cc2ccccc2cc1OC (stereo not given)
    0	0
CN1CC2(CCN(C(=O)C3=Cc4ccccc4OC=C3)C2)OC1=O (stereo not given)
    6	3
CC1CC(=O)Nc2c1c(NC(=O)c1ccc(F)cc1Cl)nn2C (stereo not given)
    -8	-7
COCCNC(=O)[C@@]1(OCc2ccccc2C#N)CC(OCc2ccc(C(F)(F)F)cc2)[C@H](O)[C@H](O)C1 (stereo not given in full)
    4	14
CCC(CC)CNCc1ccc(N(C)C)nc1
    19	18
Cc1ccccc1OCC(=O)NCC(c1ccc2c(c1)CCN2C)N1CCN(C)CC1 (stereo not given)
    6	3

Complete entries from above. Values in the order: NPYLR7 agonist | NPYLR7 agonist max-min
Listed for CCc1nc2c(N3CC[C@H](CO)[C@H](O)C3)ncnc2o1 → 2 | 0
Listed for COCCNC(=O)[C@@]1(OCc2ccccc2C#N)CC(OCc2ccc(C(F)(F)F)cc2)[C@H](O)[C@H](O)C1 (stereo not given in full) → 4 | 14
Listed for COC(=O)C(C)OC(=O)c1cc2ccccc2cc1OC (stereo not given) → 0 | 0
Listed for O=C(c1ccccc1)c1cc[n+](Cc2cccc3ccccc23)cc1 → -6 | -12
Listed for CCC(CC)CNCc1ccc(N(C)C)nc1 → 19 | 18

Next part.
Every second line gives: NPYLR7 agonist	NPYLR7 agonist max-min
COc1cc(OC)cc(C(=O)N2CCN(C(C(=O)NCCCN3CCOCC3)C3CCCC3)CC2)c1 (stereo not given)
    -8	1
Cc1ccc2c(C)c(C(=O)NCCc3nc(-c4ccccn4)no3)oc2c1
    -5	-7
Cc1noc(C)c1CC(C)NC(=O)NCCCCn1ccnc1 (stereo not given)
    -6	-6
CN(Cc1ccc(C(=O)Nc2cnn(C)c2)cc1)CC1CCCO1 (stereo not given)
    20	5
O=c1cccnn1CCNS(=O)(=O)c1ccc2c(c1)CCCC2
    2	0
NC(=O)c1ccc(COC(=O)CCc2ccccc2F)cc1
    0	-2
Cc1c(C(C)NS(=O)(=O)c2cccnc2)cnn1-c1cccc2ccccc12 (stereo not given)
    3	-5
CN1CCCC2(CCN(C(=O)CCc3nc4ccccc4s3)C2)C1=O (stereo not given)
    6	4
CCCCC(=O)N(C)c1c(CC)nc2c(OCc3ccc(Cl)cc3Cl)cccn12
    5	5
COc1ccccc1CN1CCCn2cccc2C1c1ccc([N+](=O)[O-])cc1 (stereo not given)
    19	25
CCCc1cc(OC)c2c(c1)OCO2
    13	4
CCC1CN(C(=O)c2ccnn2C)CCC(=O)N1Cc1ccccc1 (stereo not given)
    11	9
CCn1c2ccccc2n2c(=O)c3c(C)nc(C)cc3c(C#N)c12
    -3	-4
O=C(c1ccc(-c2ccc(F)cc2)s1)N1CCCC1CN1CCCC1 (stereo not given)
    9	5
Nc1nonc1-c1noc(C23CC4CC(CC(C4)C2)C3)n1
    9	13
Cc1ccc(CNC(=O)CSc2nnc(N)s2)cc1
    3	-3
Cc1nc(C(C)C)sc1C(=O)NC1CC(=O)N(CCc2ccccc2)C1 (stereo not given)
    5	2
NC(=O)C1CCN(CC(=O)N2N=C(c3ccccc3)CC2c2ccc(Cl)cc2)CC1 (stereo not given)
    -14	-11
CCCNC(=O)C1(C)CCN(Cc2cccc(OCOC)c2)C1 (stereo not given)
    1	0
Cc1cc(CN(C)C(=O)CC2C(=O)NCCN2Cc2c(F)cccc2Cl)on1 (stereo not given)
    5	4
COc1ccc(-c2cc(C(=O)NC(C)CCc3ccccc3)n3nc(C(C)(C)C)cc3n2)cc1 (stereo not given)
    2	2
CC(=O)c1ccc(NC=CC(=O)c2ccc(Cl)cc2)cc1
    7	10
CC(C)(C)OC(=O)NC(c1noc(C2CC(c3ccccc3)=NO2)n1)C1CC1 (stereo not given)
    -11	-14
COc1ncc(Cl)c(NCCC(=O)NC(C)C)n1
    4	3
CC1C(=O)N(C)CCN1C(=O)c1cc(CN2CCC(Cc3ccccc3)CC2)on1 (stereo not given)
    -1	-9
Cc1cccc(CN(C)Cc2cc(-c3ccccc3)no2)n1
    11	8
COc1cccc(-c2cccc(-c3ccc(NC(=O)c4ccc(C#N)cc4)cc3)n2)c1
    9	18
O=C1NC(=NC2CCCC2)SC1=Cc1ccc2c(c1)OCCO2
    6	5
COc1cccc(C(=O)Nc2ccc(C3SCC(=O)N3c3cc(C)ccc3F)cc2)c1 (stereo not given)
    -5	-3
CC(C)COC(=O)c1ccc(N=CC(C#N)c2nc(C3CC3)cs2)cc1 (stereo not given)
    12	9

Copied from the list.
NPYLR7 agonist with `CC(=O)c1ccc(NC=CC(=O)c2ccc(Cl)cc2)cc1` → 7
NPYLR7 agonist max-min with `COc1cccc(-c2cccc(-c3ccc(NC(=O)c4ccc(C#N)cc4)cc3)n2)c1` → 18
NPYLR7 agonist max-min with `COc1ncc(Cl)c(NCCC(=O)NC(C)C)n1` → 3
NPYLR7 agonist with `CC1C(=O)N(C)CCN1C(=O)c1cc(CN2CCC(Cc3ccccc3)CC2)on1` (stereo not given) → -1

Next part.
Every second line gives: NPYLR7 agonist	NPYLR7 agonist max-min
COc1cccc(NC(=O)CSc2nc3c(-c4ccccc4)c[nH]c3c(=O)n2C2CC2)c1
    1	-1
O=C(O)C1CC2(CCNCC2)CN1C(=O)c1cccc(Oc2ccccc2)c1 (stereo not given)
    3	1
Cc1cccc(NC(=O)N2CCC3(CC2)C(=O)N(CC(=O)NC(C)c2ccccc2)CN3c2ccccc2)c1 (stereo not given)
    5	13
O=C(NCCCC(=O)N1CCCC1c1cccc(Br)c1)C1CC1 (stereo not given)
    9	3
COc1ccccc1-c1cc(C(=O)N2CCN(Cc3ccccc3)CC2)nc2cc(-c3ccccc3)nn12
    5	3
COc1ccc(C2c3cccn3CCCN2Cc2cccc([N+](=O)[O-])c2)cc1OC (stereo not given)
    34	29
COCCN(CC(=O)N(CCc1c[nH]c2ccccc12)Cc1ccc(OC)c(OC)c1)C(=O)Nc1ccccc1C(F)(F)F
    -8	-3
COc1cc(OC)cc(C(=O)NC(C)c2ccc(Cl)s2)c1 (stereo not given)
    2	0
COc1ccc(Nc2oc(-c3ccc(S(=O)(=O)N(C)Cc4ccccc4)cc3)nc2C#N)cc1
    0	8
CCOC(=O)c1c(C)[nH]c(C(=O)COC(=O)c2ccsc2)c1C
    10	8
CCOC(=O)c1[nH]ncc1CN1CCn2cncc2C1
    15	12
CCCCN1CC(c2nc3ccccc3n2CCCC)CC1=O (stereo not given)
    -1	-7
Cc1ccc(-c2noc(-c3cccn(CC(=O)Nc4c(C)cccc4C)c3=O)n2)cc1
    -1	-5
Cc1ccc(C(CNC(=O)c2cnc3ccccc3n2)N2CCOCC2)cc1 (stereo not given)
    -3	-5
CCOC(=O)N1CCC(NCC(=O)NCc2ccccc2F)CC1
    1	2
COC(=O)C1=C(C)NC(C)=C(C(=O)OC)C1c1ccc(Cl)cc1
    3	0
Cc1ccc2cc(C3(O)CCN(C(=O)CCn4cnnc4)CC3)ccc2n1
    -4	-3
Cc1cccc(-n2nc(-c3ccccc3)c3c2N(CC(=O)N2CCOCC2)C(=O)CSC3c2ccc3c(c2)OCO3)c1 (stereo not given)
    25	33
Cc1ccc(C2(O)CCN(CCCOc3ccc(C(N)=O)cc3)CC2)nc1
    24	9
CCOC(=O)C1(Cc2cccc(OC)c2)CCN(Cc2ccc3ncccc3c2)CC1
    4	0
O=C(O)COc1ccccc1C=NN1CCN(Cc2cccc3ccccc23)CC1
    0	-2
C=C(C)CSc1nc2c(c(=O)n(C)c(=O)n2C)n1CCCc1ccccc1
    -1	37
NC(=O)c1ccc(NC(=O)CN2C(=O)NC3(CCS(=O)(=O)c4ccc(F)cc43)C2=O)cc1 (stereo not given)
    -4	-7
Cc1ccccc1-n1c(C)nnc1SCC(O)c1ccccc1 (stereo not given)
    0	-1
CN1CCCC(C(=O)Nc2cccc(Cl)c2)CC1 (stereo not given)
    -1	0
CCCCOC(=O)c1cc2c(cn1)[nH]c1ccccc12
    -12	-16
CC(C)Oc1ccc(C(=O)NNC(=O)CN2C(=O)C3CC=CCC3C2=O)cc1 (stereo not given)
    3	3
O=[N+]([O-])c1ccc(/C=N\Nc2cc(N3CCCC3)nc(N3CCCC3)n2)cc1
    -4	-9
CCC(C)N(Cc1csc(COc2ccccc2)n1)C(C)=O (stereo not given)
    7	1
Cc1ncc(CN2CCCC(CNC(=O)c3ccc(-c4ccccc4)cc3)C2)s1 (stereo not given)
    1	-4
CN(C)c1ccc(C=Nc2ccc3c4c(cccc24)C(=O)N(c2ccccc2)C3=O)cc1
    26	14
COc1cccc(OC)c1-c1ccc(-n2cncc2C(=O)NCc2c(C)cc(Cl)cc2Cl)cc1
    2	-6
CN=c1scc(-c2ccc(Cl)cc2)n1N=Cc1ccccc1I
    -1	-2
CCn1nc(C)c(C(=O)OCCc2scnc2C)c1Cl
    9	7
CNS(=O)(=O)c1ccc(C)c(N(C)S(=O)(=O)c2ccc(C)cc2)c1C
    3	-1
CNc1cncc(-c2cccc(C(C)=O)c2)n1
    0	-3
O=c1oc(-c2cncc(Br)c2)nc2ccccc12
    2	1
Cc1cc(C)c2c(c1C(=O)N1CCC(O)(c3ccccc3)CC1)CC(C)(C)C2=O
    -6	-15
CC(C)(C)C(=O)N1CCN(C(=O)Nc2ccc3c(c2)oc2ccccc23)CC1
    4	3
Cc1ccc(C)c(C2c3cccn3CCCN2Cc2ccco2)c1 (stereo not given)
    -6	13
CC(c1nccs1)N(C)C(=O)c1ccccc1N1CCOCC1 (stereo not given)
    1	0
CCOc1ccc(C2C(C(=O)c3cccs3)=C(O)C(=O)N2CCCN2CCOCC2)cc1 (stereo not given)
    3	-1
COc1ccc(C2=Nc3ccccc3SC(C(=O)O)C2)cc1 (stereo not given)
    6	3
CCOC(=O)Cc1c(C)nc2ncnn2c1N1CCN(S(=O)(=O)c2ccccc2OC(F)(F)F)CC1
    29	18
COC(=O)[C@H]1CCCN1C(=O)[C@@H]1[C@@H](NC(=O)NC2CCCCC2)CCN1C(=O)c1cccn1C
    -6	-15
O=c1oc2cc(O)ccc2cc1S(=O)(=O)c1ccc(F)c(Cl)c1
    8	8
CCOCCn1cnc(-c2ccccc2)c1-c1ccc(OC)c(O)c1Cl
    1	19
O=C(NCc1ccc(Cl)cc1)c1ccc(CN2CCOCC2)cc1
    -11	-9
Cc1nc(-n2nc(-c3cccs3)cc2NC(=O)COc2ccc(C(C)C)cc2)[nH]c(=O)c1C
    4	4
Cc1nnc(SCc2nnc(-c3ccc(Br)cc3)o2)n1C1CC1
    -1	3

Given bar-delimited: 2 of the compounds above.
smiles | NPYLR7 agonist | NPYLR7 agonist max-min
O=C(NCc1ccc(Cl)cc1)c1ccc(CN2CCOCC2)cc1 | -11 | -9
COc1ccc(C2=Nc3ccccc3SC(C(=O)O)C2)cc1 (stereo not given) | 6 | 3

Next structures
Every second line gives: NPYLR7 agonist	NPYLR7 agonist max-min
COC(=O)C(C)Sc1nnc(-c2cccs2)n1-c1cccc(C)c1 (stereo not given)
    -6	-4
COc1ccc(CN(C)c2ccnc(C(=O)NC3CC3)c2)c2cccnc12
    1	6
CC1CCc2sc(-c3nnc(SCc4coc(-c5cccs5)n4)o3)cc2C1 (stereo not given)
    5	3
NC(=O)c1cc(N2CCN(c3cccc(Cl)c3)CC2)nc2ccccc12
    0	0
CCc1nnc(NC(=O)C(=O)N(C)C(C)c2cccs2)s1 (stereo not given)
    5	1
CCCC(CCC)C(=O)NCCc1cc2cc(C)c(C)cc2[nH]c1=O
    1	48
Clc1cncc(N2CCC3(CCCCCC3)C2)n1
    2	-2
CC(C)(C)c1ccc(/C=C2N=C(/C=C/c3ccc([N+](=O)[O-])cc3)OC\2=O)cc1
    -5	-8
Cc1nc2cc(OCc3nc(C(=O)N(C)CCc4cn[nH]c4)co3)ccc2s1
    1	-4
Cn1cc(SCC(=O)N2CCc3ccccc32)c2ccccc21
    -1	-1
Cc1ccccc1CN1CCC(CN(Cc2cccnc2)C(=O)C2CCOC(C)(C)C2)CC1 (stereo not given)
    5	3
CC(NC(=O)C1(N(C)CCc2ccccc2)Cc2ccccc2C1)c1nn[nH]n1 (stereo not given)
    3	2
COC(=O)CN1CCN(CC(=O)Nc2cc(C)ccc2F)C(C)C1=O (stereo not given)
    1	-5
CCOC(=O)C(C)n1cnc2c(nnn2-c2ccc(C)cc2)c1=O (stereo not given)
    4	9
CCOC(=O)CN1C(=O)SC(=Cc2ccc(Br)o2)C1=O
    -2	-3
Cn1cc(SC(=N)N)c2ccccc21
    -7	-12
